Assay outcomes: PubChem, Johns Hopkins Ion Channel Center
KCNQ2 inh: KCNQ2 potassium channel inhibitors, primary screen, cell-based, CHO-K1, FluxOR thallium flux, B-score (AID 2156); O88943; 20 min; active compounds read low; only compounds with negative scores are shown here; some inactives read as strong as hits; B-score at 10 µM; 310,000 tested, 1.1% active;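 active = fluorescence ratio B-score at most minus 3 library SDs, with starting brightness B-score within 2 library SDs, cut at about -5.5 in these data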
Target sequence (O88943 whole entry, looked up): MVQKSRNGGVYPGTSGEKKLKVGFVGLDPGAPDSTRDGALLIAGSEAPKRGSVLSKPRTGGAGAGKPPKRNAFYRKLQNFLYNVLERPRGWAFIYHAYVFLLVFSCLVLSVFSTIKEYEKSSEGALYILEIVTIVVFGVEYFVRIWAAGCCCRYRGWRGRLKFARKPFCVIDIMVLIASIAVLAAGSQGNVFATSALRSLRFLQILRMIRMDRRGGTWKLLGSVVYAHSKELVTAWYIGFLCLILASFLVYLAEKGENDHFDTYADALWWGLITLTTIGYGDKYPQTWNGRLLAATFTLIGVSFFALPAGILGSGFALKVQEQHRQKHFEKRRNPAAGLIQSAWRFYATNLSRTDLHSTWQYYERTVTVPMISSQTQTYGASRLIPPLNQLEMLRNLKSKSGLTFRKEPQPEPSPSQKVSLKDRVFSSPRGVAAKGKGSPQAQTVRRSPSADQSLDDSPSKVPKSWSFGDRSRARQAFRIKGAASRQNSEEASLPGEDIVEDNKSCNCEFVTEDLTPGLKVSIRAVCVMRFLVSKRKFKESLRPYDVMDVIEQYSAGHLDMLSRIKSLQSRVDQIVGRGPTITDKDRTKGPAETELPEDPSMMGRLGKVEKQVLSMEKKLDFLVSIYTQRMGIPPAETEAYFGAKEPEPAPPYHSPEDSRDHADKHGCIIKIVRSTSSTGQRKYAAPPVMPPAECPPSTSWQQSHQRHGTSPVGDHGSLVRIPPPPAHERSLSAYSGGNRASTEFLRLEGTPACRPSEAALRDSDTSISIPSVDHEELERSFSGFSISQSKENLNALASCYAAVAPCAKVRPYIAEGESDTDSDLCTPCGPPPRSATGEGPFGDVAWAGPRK
KCNQ2 inh baseline: second read-out of KCNQ2 inh, no call of its own (marks repeat the call); B-score; measured here: initial fluorescence intensity artifact check;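 brightness before thallium and not channel activity; 0 = typical well and far values either way flag optical interference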
The depositor's hits bear a star; i = inactive. Some of the compounds tested, so the mix of outcomes need not match the whole.

Sequence of screens: KCNQ2 inh, KCNQ2 inh baseline
> COc1ccc(CCNC(=O)CNC(=O)c2ccc(Br)o2)cc1OC
 : i, -0.12
> O=S(=O)(NCc1ccco1)c1ccc(S(=O)(=O)N2CCCCC2)cc1
 : i, 0.76
> CC(=O)Oc1ccc2oc(-c3ccccc3)c(C(N)=O)c2c1
 : i, -0.08
> O=C(CCN1C(=O)c2ccccc2C1=O)N1CCN(c2ccccn2)CC1
 : i, 0.6
> O=C(COC(=O)c1cnccn1)N=c1sccn1Cc1ccccc1Cl
 : i, 1.8
> CCN1CCc2[nH]c3ccccc3c2C1
 : i, 0.84
> CC(=O)N1c2ccc(S(=O)(=O)N(C)CC(=O)Nc3cccc(C)c3)cc2CC1C (stereo not drawn)
 : i, -1.1
> COc1cc(NC(=O)C(=O)Nc2ccc3nc4n(c(=O)c3c2)CCCCC4)cc(OC)c1OC
 : i, 0.04
> S=C(NCC1CCCO1)Nc1ccccc1 (stereo not drawn)
 : i, -2.4
> COc1cc(NC(=O)CSc2nnnn2Cc2ccc3c(c2)OCO3)cc(OC)c1
 : i, 1.2
> CCC(C)Nc1nc(OC(C(F)(F)F)C(F)(F)F)nc(OC(C(F)(F)F)C(F)(F)F)n1 (stereo not drawn)
 : i, 2.4
> CCC(=O)Nc1ccc(NC(=O)c2ccco2)c(OC)c1
 : i, -1.2
> Cc1ccc2c(c1)N(C)/C(=C/c1cccc[n+]1C)S2
 : i, 4.7
> CC(C)(C)n1ncc2c(=O)n(CC(=O)OCc3ccccc3)cnc21
 : i, 0.34
> Cc1ccc(-c2nnc(SC(C)C(=O)NCC3CCCO3)nc2-c2ccc(C)cc2)cc1 (stereo not drawn)
 : i, 0.18
> COc1ccc(OC)c(C2CC(=O)N3CN(c4ccc(C)c(Cl)c4)CSC3=C2C#N)c1 (stereo not drawn)
 : i, 4.9
> O=[N+]([O-])/C=C1\C=CC=CN1Cc1ccc(Cl)cc1
 : i, -0.41
> N#Cc1ccc(-c2ccco2)nc1SCc1ccccc1
 : i, 0.28
> Cc1ccccc1NC(=O)OCc1cccnc1Oc1ccc(Cl)cc1
 : i, 0.01
> Cc1ccc(S(=O)(=O)N2CCCC(C(=O)N3CCCc4ccccc43)C2)cc1 (stereo not drawn)
 : i, -0.14

The listing continues.
Sequence of screens: KCNQ2 inh, KCNQ2 inh baseline
> CCN(CC)c1ccc(/C=N/NC(=O)c2ccc([N+](=O)[O-])cc2)cc1
 : i, -1.3
> CCS(=O)(=O)N1CCC(C(=O)Nc2ccc(C(C)=O)cc2)CC1
 : i, 0.1
> COc1ccc(CCN2C(=O)C3C(C2=O)C2C=CC3C23CC3)cc1OC (stereo not drawn)
 : i, 0.19
> COc1ccc(-c2nn(-c3ccccc3)cc2C(=O)Nc2cccc(C(=O)O)c2)cc1[N+](=O)[O-]
 : i, 1.2
> CCn1cc(CN(C)S(=O)(=O)c2ccc3ccccc3c2)c(C)n1
 : i, 0.47
> CCCCCn1c(CN2CCN(Cc3ccccc3)CC2)nc2c1c(=O)[nH]c(=O)n2C
 : i, 0.01
> Cc1noc(COc2ccccc2OCC(N)=O)c1Cl
 : i, 2.9
> O=C(CSc1nc(=O)n(CCN2CCOCC2)c2c1CCCC2)Nc1cccc([N+](=O)[O-])c1
 : i, -0.4
> CCc1nc2cc(CC(=O)O)ccc2o1
 : i, 1
> CC(C)c1nc(CNC(=O)CC2C(=O)NCCN2Cc2ccc(F)cc2Cl)cs1 (stereo not drawn)
 : i, 0.02
> CN1/C(=C\C=C2/C(=O)Oc3ccccc3C2=O)C(C)(C)c2ccccc21
 : i, 26
> CC(C)CN(C(=O)c1cccc(S(=O)(=O)N2CCN(c3ccc(F)cc3)CC2)c1)C1CCS(=O)(=O)C1 (stereo not drawn)
 : i, 1.4
> CCOc1ccc(N2CC(C(=O)N3CC(C)OC(C)C3)CC2=O)cc1 (stereo not drawn)
 : i, 0.3
> Cc1ccn(-c2ccc([N+](=O)[O-])cc2)n1
 : i, -0.46
> O=c1c2c(-c3cccs3)csc2ncn1-c1ccccc1
 : i, -0.18
> COc1cc(OC)c(S(=O)(=O)NCc2cccnc2)cc1NC(C)=O
 : i, -1.2
> CCCCCc1nc(-c2nonc2N)no1
 : i, -0.09
> CCNC(=S)NNC(=O)c1cc(-c2ccc(OC)cc2)nc2ccccc12
 : i, 0.96
> CN1/C(=C\C(=S)Nc2ccccc2)C(C)(C)c2ccccc21
 : i, -1.1
> Cc1ccccc1-n1c(=O)cc(N2CCCCCC2)[nH]c1=O
 : i, -0.4

2 of these compounds in a different format:
| KCNQ2 inh | KCNQ2 inh baseline | compound |
| --- | --- | --- |
| i | 0.1 | CCS(=O)(=O)N1CCC(C(=O)Nc2ccc(C(C)=O)cc2)CC1 |
| i | 0.19 | COc1ccc(CCN2C(=O)C3C(C2=O)C2C=CC3C23CC3)cc1OC (stereo not drawn) |

Later entries.
Sequence of screens: KCNQ2 inh, KCNQ2 inh baseline
> COC(=O)c1cn(C)c2ccc(S(=O)(=O)N3CC(C)CC(C)C3)cc2c1=O (stereo not drawn)
 : i, -0.24
> CN(Cc1cnn(C)c1)C(=O)c1cc(COc2c(F)cccc2F)on1
 : i, 1.8
> Cc1nonc1CC(=O)NC1CC(C)(C)Cc2c1cnn2-c1ccc(F)cc1 (stereo not drawn)
 : i, 0.16
> CC(C)Oc1ccc(C(=O)NCC(=O)OCC(=O)N(C)Cc2cccs2)cc1
 : i, -0.12
> CNC(=O)COC(=O)c1cc(-c2ccc(OC)cc2)nc2ccccc12
 : i, -0.31
> Cn1c(Cl)cnc1C(O)c1ccccc1 (stereo not drawn)
 : i, -1
> COc1ccc(-n2c(C)cc(/C=C(\C#N)C(=O)NCc3ccco3)c2C)cc1
 : i, -0.53
> CC1C/C(=C\c2ccccc2[N+](=O)[O-])c2nc3ccccc3c(C(=O)O)c2C1 (stereo not drawn)
 : -5.8*, 1.2*
> CCOC(=O)c1cc2occc2n1CCCN1C(=O)c2ccccc2C1=O
 : i, -0.58
> CCn1c(CCNC(=O)c2cccs2)nnc1SCC(=O)Nc1nc(-c2ccccc2)cs1
 : i, 0.18
> COc1ccc(OC)c(C(=O)COC(=O)CN2C(=O)NC3(CCCCC3C)C2=O)c1 (stereo not drawn)
 : i, -0.9
> O=C(Nc1ccc(F)c(F)c1)C1CCCN(S(=O)(=O)c2cccc3nonc23)C1 (stereo not drawn)
 : i, -0.32
> CCOC(=O)c1c(C)nc(C)c2c(=O)oc3ccccc3c12
 : i, -0.25
> CN1/C(=C\C(=S)NC(=O)c2ccc([N+](=O)[O-])cc2)C(C)(C)c2ccccc21
 : i, -0.52
> CC(=O)N1c2ccc(S(=O)(=O)NCCc3ccc(Cl)cc3)cc2CC1C (stereo not drawn)
 : i, 0.95
> COc1ccc(C2CC(=O)N(C)c3ccccc3S2)cc1 (stereo not drawn)
 : i, 0.33
> Cc1cccc(NC(=S)NC2CC3CCCC(C2)N3Cc2ccco2)c1 (stereo not drawn)
 : i, 0.56
> COc1ccc(C(=O)NCC(=O)N2CCN(c3ccc(F)cc3)CC2)cc1
 : i, 0.68
> Cn1ccnc1Sc1ccccc1[N+](=O)[O-]
 : i, 0.02
> CCN(Cc1ccccc1)S(=O)(=O)c1ccc(S(=O)(=O)N(Cc2ccccn2)Cc2ccco2)cc1
 : i, 0.05

Whole records as entered above. Order of screens: KCNQ2 inh, KCNQ2 inh baseline
Cc1noc(COc2ccccc2OCC(N)=O)c1Cl across the screens: i, 2.9
O=C(CCN1C(=O)c2ccccc2C1=O)N1CCN(c2ccccn2)CC1 across the screens: i, 0.6
COc1ccc(C2CC(=O)N(C)c3ccccc3S2)cc1 (stereo not drawn) across the screens: i, 0.33
CN1/C(=C\C(=S)NC(=O)c2ccc([N+](=O)[O-])cc2)C(C)(C)c2ccccc21 across the screens: i, -0.52
COc1cc(NC(=O)C(=O)Nc2ccc3nc4n(c(=O)c3c2)CCCCC4)cc(OC)c1OC across the screens: i, 0.04

The results go on:
Sequence of screens: KCNQ2 inh, KCNQ2 inh baseline
> Cc1[nH][nH]c(=O)c1C(c1ccc(-c2ccc(Cl)cc2)o1)c1c(C)[nH][nH]c1=O
 : i, -2.2
> NC(=O)C1(c2ccccc2)CCCN1C(=O)c1ccccc1Br (stereo not drawn)
 : i, -1.1
> CS(=O)(=O)N1N=C(c2cccs2)CC1c1ccccc1O (stereo not drawn)
 : i, 1.1
> C[C@@]12C(=O)N(c3cccc(F)c3)C(=O)N1[C@H](c1ccc(F)cc1)[C@@H]1C(=O)N(C3CCCCC3)C(=O)[C@@H]12
 : i, -1.7
> O=C(CN1CCOCCOCCN(CC(=O)Nc2ccccc2)CCOCC1)Nc1ccccc1
 : i, 0.59
> O=C(Nc1ccc2c(c1)OCO2)c1ccc(CN2CCOCC2)cc1
 : i, -0.86
> O=C(Nc1ccc2c(c1)OCO2)c1cc(-c2ccncc2)nc2ccccc12
 : i, 0.02
> CCOC(=O)C(CC(=O)O)=C(c1ccccc1)c1ccccc1
 : i, 0.95
> COc1ccc(OC)c(N(CC(=O)N2CCOCC2)S(C)(=O)=O)c1
 : i, -0.22
> Cc1cc(-c2nc(-c3ccc(C(C)(C)C)cc3)no2)no1
 : i, -0.19
> O=S(=O)(c1ccc(Cl)c(C(F)(F)F)c1)N1CCN(c2ccccn2)CC1
 : i, 1.1
> COc1ccc(CCN2CN(S(=O)(=O)c3ccc(C)cc3)c3nc4ccccc4nc32)cc1OC
 : i, 0.45
> Cc1cc(Cl)ccc1OC(C)C(=O)NCCc1ccc2c(c1)OCCO2 (stereo not drawn)
 : i, 4.9
> Clc1ccc(Cn2c(/C=C/c3ccco3)nc3ccccc32)cc1
 : i, 2.6
> CCOC(=O)c1c(NC(=O)COC(=O)C2CC2C)sc(C)c1C (stereo not drawn)
 : i, -0.03
> O=C(Nc1cccc2ccccc12)N1CC=CCC1
 : i, 0.74
> COc1ccc2c3c([nH]c2c1)C(C)N(CCC(=O)NN)CC3 (stereo not drawn)
 : i, 0.27
> Cn1ncc(N=Cc2ccc([N+](=O)[O-])cc2)c1C(=O)Nc1ccccc1
 : i, 1.3
> O=C(COc1ccccc1)Nc1nc2ccccc2[nH]1
 : i, 1.9
> Cc1ccc(NS(=O)(=O)c2ccc(-n3cccn3)cc2)cc1F
 : i, -1.6

Further entries follow:
canonical_smiles | KCNQ2 inh | KCNQ2 inh baseline
C=CCN(c1ccccc1)S(=O)(=O)c1ccc(Cl)c(C(=O)OCC(=O)N(C)C2CCS(=O)(=O)C2)c1 (stereo not drawn) | i | -0.07
CCC(=O)Nc1ccc(C(=O)Nc2cc(C)on2)cc1 | i | -0.03
Cc1cc2c(cc1S(=O)(=O)Nc1cccc(C)c1C)OCC(=O)N2 | i | -0.13
CCOC(=O)N1CCN(C(=O)CN(Cc2ccc(Cl)cc2)S(=O)(=O)c2ccccc2)CC1 | i | 0.06
COC(=O)C(C)NS(=O)(=O)c1ccc(NC(C)=O)cc1 (stereo not drawn) | i | 2.4
Cc1cc(C)c(C#N)c(SCc2cn3c(C)cccc3n2)n1 | i | 0.64
NS(=O)(=O)c1ccc(CNC(=O)c2ccc(S(=O)(=O)C(F)F)cc2)cc1 | i | 1.1
Cc1ccccc1NC(=S)NNc1ncc(C(F)(F)F)cc1Cl | i | 2.1
Cc1cc(C)cc(NC(=O)NC2CCCCCCC2)c1 | i | 0.17
O=C(CSc1nc2ccccc2[nH]1)c1ccccc1F | i | -2.5
CCn1nc(C(=O)OCC(=O)Nc2ncc(Cl)c(C)c2Cl)c2ccccc2c1=O | i | -0.08
Cc1cccc(C(=O)NCC(=O)NC(C)CCc2ccccc2)c1 (stereo not drawn) | i | 1.1
Cc1ccc(S(=O)(=O)N2CCCC2CNC(=O)C(=O)NCc2cccs2)cc1 (stereo not drawn) | i | -0.7
CCOC(=O)C1=C(C)NC(=O)NC1c1ccc(OC(=O)c2ccco2)c(OC)c1 (stereo not drawn) | i | -0.39
Cc1ccc(Cn2c(N3CCN(C)CC3)nc3c2c(=O)[nH]c(=O)n3C)cc1 | i | 1.6
S=c1[nH]nc(-c2cc(-c3ccsc3)n[nH]2)n1-c1ccccc1 | i | -0.05
CSc1ccccc1NC(=O)c1ccccn1 | i | -0.26
COc1ccc([N+](=O)[O-])cc1N(CC(=O)NC(C(C)C)C(C)C)S(C)(=O)=O | i | 1.1
Cc1c(CCC(C)C)c(-n2ccnc2C)n2c(nc3ccccc32)c1C#N | i | -0.17
COc1ccc(/C=C/C(=O)NC(=S)Nc2ccccc2)cc1OC | i | -1.2
Cc1ccccc1C(=O)NCC(=O)NCC1(N2CCOCC2)CCCCC1 | i | -0.08
CC(=O)c1cccc(NC(=O)c2ccc(NS(=O)(=O)c3c(C)noc3C)cc2)c1 | i | 0.64
CN(/C=C/C(=C/C=[N+](C)c1ccccc1)OCCCS(=O)(=O)[O-])c1ccccc1 | i | 8.1
CCOC(=O)c1cccc(NC(=O)C2CCN(c3ncnc4c3nc3n4CCCCC3)CC2)c1 | i | -1.1
O=C(NNS(=O)(=O)c1ccccc1)C1CCN(S(=O)(=O)c2ccccc2)CC1 | i | 1.1

Further results follow:
canonical_smiles | KCNQ2 inh | KCNQ2 inh baseline
CCOC(=O)c1ccc(NC(=O)Nc2ccc(Cl)cn2)cc1 | i | -0.3
N#C/C(=C\c1cn(CCOc2ccccc2)c2ccccc12)C(=O)NCC1CCCO1 (stereo not drawn) | i | -0.68
COc1ccc(CCNS(=O)(=O)c2ccc3c(c2)OCCO3)cc1 | i | 2.2
CCOc1ccccc1NC(=O)C1C2C=CC(C2)C1C(=O)O (stereo not drawn) | i | 2.9
CC1CCN(c2nnc(-c3cccs3)c3ccccc23)CC1 | i | 1.6
Cc1ccc(C)c(NCC(=O)c2ccc(Cl)cc2)c1 | i | 0.88
CCc1noc(C)c1C(=O)N1CCSC1=Nc1cccc(Cl)c1C | i | -0.39

Copied from the list:
Under KCNQ2 inh baseline, COc1ccc(CCNS(=O)(=O)c2ccc3c(c2)OCCO3)cc1 reads 2.2
Under KCNQ2 inh baseline, CCOc1ccccc1NC(=O)C1C2C=CC(C2)C1C(=O)O (stereo not drawn) reads 2.9
Under KCNQ2 inh baseline, CC1CCN(c2nnc(-c3cccs3)c3ccccc23)CC1 reads 1.6
Under KCNQ2 inh baseline, N#C/C(=C\c1cn(CCOc2ccccc2)c2ccccc12)C(=O)NCC1CCCO1 (stereo not drawn) reads -0.68
